# From PubChem BioAssay
# Mtb betalactam: beta-lactam sensitization of Mtb H37Rv, H37Rv | inhibition, % at 25 µM | M. tuberculosis H37Rv growth with meropenem, percent inhibition; hits of this screen are not shown here | AID 434955, 2010 | 330,000 tested, 0.27% active;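 active = about 74% or more and at least 40 points above the plate without the antibiotic, then above 30% in a dose series; inconclusive = first-round hits that could not be retested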;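 also: growth measured after seven days incubation then overnight dye step; 0% = bacteria only wells and 100% = bacteria with antibiotic; twin plates without the antibiotic show which effects depend on it; some results filed as inactive read as strong as hits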
# YopH PTP inh: YopH tyrosine phosphatase inhibitors, primary screen, biochemical, fluorescence Ex485/Em525; YopH tyrosine phosphatase [Yersinia enterocolitica]; inhibition, %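 (about 10 µM by stock and volumes)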; 140,000 tested, 0.16% active; AID 898, 2007;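 active = inhibition of 50% or more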;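 also: controls were vehicle for no effect and minimum signal wells for full effect; inactives centre near -20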
# Mtb H37Rv: M. tuberculosis H37Rv growth inhibitors, H37Rv strain (AID 1626) | 220,000 tested, 0.95% active | inhibition, % at 10 µM, or IC50 in µM where a hit was titrated | M. tuberculosis H37Rv growth inhibition; higher % means a stronger effect;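 active = confirmed in a dose series; inconclusive = inhibition above 80% but not taken into the dose series; inactive = below 80% or under 30% at every dose of the series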;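 also: bacteria incubated seven days before Alamar blue readout; 0% = bacteria only wells and 100% = bacteria with antibiotic wells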
# Arbovirus inh: antivirals against arbovirus infection, primary screen, cell-based, full library, 10K replicate subset; inhibition, % at 10 µM; arbovirus infection cell-based antiviral screen; 200,000 tested, 0.37% active;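 active = inhibition from about 30%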;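 also: bluetongue infection of BSR cells; cell survival read as ATP light after 72 h; 0% = infected wells without compound and 100% = uninfected wells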
# RecA intein inh: Mtb RecA intein splicing inhibitors, primary screen, biochemical, fluorescence, HTS; Protein RecA (Mycobacterium tuberculosis (strain ATCC 25618 / H37Rv)), P9WHJ3; cell-free RecA intein splicing; inhibition, %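 (about 9 µM by stock and volumes)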; 290,000 tested, 0.75% active; in the data active = inhibition above about 30%; inconclusive = no clear call, values can overlap the other calls;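 also: 0% = vehicle wells and 100% = reference inhibitor control wells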
# Target sequence (P9WHJ3 whole entry, looked up): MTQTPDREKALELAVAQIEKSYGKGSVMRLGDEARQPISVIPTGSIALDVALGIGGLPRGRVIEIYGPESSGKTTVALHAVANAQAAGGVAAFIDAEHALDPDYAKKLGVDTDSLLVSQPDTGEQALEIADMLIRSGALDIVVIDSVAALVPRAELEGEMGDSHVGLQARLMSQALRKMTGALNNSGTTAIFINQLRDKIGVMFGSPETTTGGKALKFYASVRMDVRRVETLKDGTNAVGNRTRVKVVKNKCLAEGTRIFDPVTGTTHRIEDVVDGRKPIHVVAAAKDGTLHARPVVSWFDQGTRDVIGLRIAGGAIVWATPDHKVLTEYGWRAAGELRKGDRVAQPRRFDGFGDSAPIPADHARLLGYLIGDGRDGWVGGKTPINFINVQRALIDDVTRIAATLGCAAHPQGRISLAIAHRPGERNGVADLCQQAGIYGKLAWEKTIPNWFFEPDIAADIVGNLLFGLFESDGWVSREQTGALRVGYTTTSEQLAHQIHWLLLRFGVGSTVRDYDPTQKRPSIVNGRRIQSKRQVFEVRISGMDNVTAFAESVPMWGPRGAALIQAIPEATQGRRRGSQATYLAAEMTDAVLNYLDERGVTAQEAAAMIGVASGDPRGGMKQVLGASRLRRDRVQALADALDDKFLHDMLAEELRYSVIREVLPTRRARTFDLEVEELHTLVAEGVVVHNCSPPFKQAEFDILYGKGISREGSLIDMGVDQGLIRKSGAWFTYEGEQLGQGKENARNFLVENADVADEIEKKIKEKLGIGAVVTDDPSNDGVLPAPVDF
# Arbovirus inh repeat: also measured in Arbovirus inh; calls as there; inhibition, %; measured here: 10K subset replicate screen; many hits read low in the repeat;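 first of two repeat runs on a subset; 0% = infected and 100% = uninfected wells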
# An asterisk follows results filed as active; ? = inconclusive; . = no result given. A portion of the library; rates above refer to the full screens.
# Sample of the layout (5 entries):
SMILES,Mtb betalactam,YopH PTP inh,Mtb H37Rv,Arbovirus inh,RecA intein inh,others
Cc1nnc(C)n1/N=C/c1ccc(O)cc1,-6,-29,1%,-4,-2.7,
O=C(CSCc1ccc(Cl)cc1)Nc1ccccc1C(=O)N1CCOCC1,-18,-38,-9%,7,1.6,
O=C(CCN1C(=O)/C(=C/c2ccccc2Cl)SC1=S)NC1CCS(=O)(=O)C1 (centres undefined),5,.,.,.,-2.3,
CC(=O)NCC(=O)NC(C(=O)Nc1ccc2c(c1)OCCO2)c1ccc(C)cc1 (centres undefined),-7,-10,2%,0,-0.3,
C=CCN1C(=O)c2ccc(C(=O)N3CCN(c4ccccc4OC)CC3)cc2C1=O,-7,.,.,.,-2.3,

# This part in full, from the start:
SMILES,Mtb betalactam,YopH PTP inh,Mtb H37Rv,Arbovirus inh,RecA intein inh,others
Cc1nnc(C)n1/N=C/c1ccc(O)cc1,-6,-29,1%,-4,-2.7,
O=C(CSCc1ccc(Cl)cc1)Nc1ccccc1C(=O)N1CCOCC1,-18,-38,-9%,7,1.6,
O=C(CCN1C(=O)/C(=C/c2ccccc2Cl)SC1=S)NC1CCS(=O)(=O)C1 (centres undefined),5,.,.,.,-2.3,
CC(=O)NCC(=O)NC(C(=O)Nc1ccc2c(c1)OCCO2)c1ccc(C)cc1 (centres undefined),-7,-10,2%,0,-0.3,
C=CCN1C(=O)c2ccc(C(=O)N3CCN(c4ccccc4OC)CC3)cc2C1=O,-7,.,.,.,-2.3,
CC(=O)c1ccc(NC(=O)c2ccc3nc(C)sc3c2)cc1,2,.,.,.,-0.3,
CCOc1cc2c(cc1OCC)C(c1ccccc1)N(c1ccccc1)C(=O)C2 (centres undefined),-3,-39,3%,2,4.5,
Cc1cc(O)c(-c2cc(C(=O)Nc3cccnc3)[nH]n2)cc1C,2,.,-2%,.,-0.7,
O=P(Nc1ccccc1)(Nc1ccccc1)Oc1cccc(Cl)c1,-4,-6,7%,0,12,
O=C(O)CC(NC(=O)C12CC3CC(CC(C3)C1)C2)c1ccc(F)cc1 (centres undefined),0,.,.,.,-0.8,
Cc1ccc2[nH]c(=O)c(CNC(C)C)cc2c1,-10,-3,-2%,9,-1.6,
CO/N=C/c1ccc(Oc2ccc(C)cc2)c([N+](=O)[O-])c1,1,.,2%,-6,18,
Cc1cccc2cc(C#N)c(SCc3nnc(-c4ccccc4[N+](=O)[O-])o3)nc12,-3,-18,4%,-6,-0.3,
Cc1nc(C)n(CC(C)C(=O)N2CCN(S(=O)(=O)c3ccc(Cl)cc3)CC2)n1 (centres undefined),-14,.,.,.,0.4,
CC(C)(C)NC(=S)NCc1cccnc1,-10,-18,-1%,9,-0.7,
Cc1nn(C(C)C(=O)NCCCN2CCCCC2C)c(=O)c2c1sc1ccccc12 (centres undefined),-5,.,.,.,-2.6,
CCC(C)NC(=O)CSc1nc2cc(S(=O)(=O)N3CCOCC3)ccc2n1CC (centres undefined),4,.,.,.,0.3,
COc1ccc(OC)c(S(=O)(=O)NC(C)c2cnn(-c3ccccn3)c2C)c1 (centres undefined),-2,.,.,.,0.8,
OC(CNCc1ccco1)Cn1c2ccccc2c2ccccc21 (centres undefined),7,-33,0%,-23,-14,
O=C1NC(c2cccnc2)C(C(=O)c2cccs2)C(O)(C(F)(F)F)N1 (centres undefined),-5,6,-3%,9,-13,
Cc1nnc(SCC(=O)c2c(N)n(C)c(=O)n(C)c2=O)n1Cc1ccccc1,-2,-23,-11%,-5,2.5,
Cc1cccc(C)c1NC(=O)c1cccc2c1C(=O)N(C1CCCCC1)C2,37,.,.,.,20,
O=[N+]([O-])c1cc(S(=O)(=O)NCCN2CCOCC2)ccc1Cl,4,.,.,.,-4.7,
CC(OC(=O)CCc1ccccc1)C(=O)Nc1ccc(Cl)cn1 (centres undefined),0,.,.,.,2.4,
O=C(COc1c(Cl)cccc1Cl)Nc1ccccc1N1CCCC1,51,.,.,.,23,
O=C1[C@@H]2Cc3c([nH]c4ccccc34)C(c3cccc(Br)c3)N2C(=O)CN1C1CCN(Cc2ccccc2)CC1 (some centres undefined),?,.,.,.,16,
Cc1cccc(C(=O)Nc2cccc(OC(=O)c3cccc(C)c3)c2)c1,-10,5,12%,8,-0.2,
CC(C)C(=O)Nc1ccccc1C(=O)N/N=C/c1ccc([N+](=O)[O-])cc1,-8,-15,-8%,-17,-0.4,
O=C(c1ccccc1)c1cccn1CC(=O)N1CCCCCC1,1,5,-3%,-1,-1.4,
C=CCn1c(COc2ccc(Cl)cc2)nnc1SCC(=O)N/N=C/c1ccccc1,-5,-30,-2%,-3,4.0,
CC(NC(=O)COC(=O)c1ccco1)c1ccccc1 (centres undefined),-2,-5,1%,9,.,
Cc1ccc(OC(=S)Nc2ccccc2)c(C)c1,-3,-32,-3%,0,5.5,
CC(=O)OCc1nc2ccccc2s1,16,-6,-14%,8,0.1,
CN(C(=O)CSc1nnnn1-c1ccccc1)C1CCS(=O)(=O)C1 (centres undefined),-18,.,-1%,12,-0.7,
Cc1ccc(C2C3=C(Nc4[nH]n(-c5ccccc5)c(=O)c42)c2ccccc2C3=O)cc1 (centres undefined),4,16,3%,2,.,
COc1cc(/C=C2/SC(=S)N(Cc3ccccc3)C2=O)ccc1OS(C)(=O)=O,-5,.,.,.,1.6,
CCCOc1ccc(N2C(=O)CC(N(CCCO)C(=O)CC)C2=O)cc1 (centres undefined),-15,.,-1%,.,-1.4,
Cc1ccc(S(=O)(=O)N2CCN(c3ccnc4cc(Cl)ccc34)CC2)cc1C,8,.,13%,30*,11,
Cc1ccc(CNC(=O)c2ccc(OCC3CCCO3)cc2)cc1 (centres undefined),3,-3,5%,0,-0.2,
COC(=O)C1CCN(C(=O)c2ccc3nccnc3c2)CC1,-2,.,.,.,-1.2,
CN(C)S(=O)(=O)N(CC(=O)Nc1ccc(F)c(F)c1)c1ccccc1,-5,-30,0%,-6,16,
CCc1ccc(NC(=O)C2CCN(S(=O)(=O)c3ccc4c(c3)N(C(C)=O)CCO4)CC2)cc1,14,.,.,.,-4.2,
CCOCCCNC(=O)c1c[nH]c2ccc(OCC)cc2c1=O,-7,.,-3%,.,0.4,
N=c1sccn1CC(=O)NC(=O)NC1CCCC1,0,-5,3%,6,-1.2,
COCCCNC(=O)CCN1C(=O)COc2ccccc21,1,-46,4%,-1,0.0,
Cc1cc(C[n+]2cc(Br)ccc2N)c2ncccc2c1,-8,.,-6%,.,-1.0,
CCc1nc2ccccc2c(=O)n1/N=C/c1ccc(OC)cc1,-4,.,.,.,-1.9,
CCSc1nc(N)c2c(C)c(C)sc2n1,4,1,-11%,-4,-2.9,
Cc1csc(SCC(=O)NC(=O)NC2CCCC2)n1,-2,.,4%,-2,4.7,
CC1=C(C(=O)NCCc2ccc(C)cc2)C2(CCC(C)CC2)OC1=O (centres undefined),-4,-33,-13%,5,-21,
COc1ccc(CN(C(=O)CSc2nnc(-c3ccccc3F)o2)c2ccc(F)cc2)cc1,-10,-3,1%,12,6.3,
Cc1ccc(-c2nnc(CCC(=O)NCC3C4CC5CC(C4)CC3C5)o2)s1 (centres undefined),-1,.,-1%,11,6.1,
COc1ccc(N2CCN(CC(=O)Nc3ccc(C)c(C)c3)CC2)cc1,-14,.,.,.,-3.0,
COc1ccc(/C(O)=C2/C(=O)C(=O)N(CCN3CCNCC3)C2c2cccc([N+](=O)[O-])c2)cc1 (centres undefined),-3,.,.,.,1.5,
CC1(C)CC(=O)C2=C(C1)Oc1ncn(CCO)c(=N)c1C2c1ccccc1 (centres undefined),-22,-57,2%,1,-0.1,
CC12CCC(c3c(C(=O)O)nn(-c4ccc(F)cc4)c31)C2(C)C (centres undefined),-2,-30,-9%,13,-1.2,
Nc1c(C(=O)Nc2ccccc2Cl)nnn1-c1ccc2c(c1)OCCO2,6,.,.,.,-0.2,
CC(C)(C)c1ccc(C(=O)NCCN2CCOCC2)cc1,-3,.,.,.,0.5,
CSc1ccc(Cl)c(C(=O)OCC(=O)N(C)CCC#N)c1,0,.,0%,10,2.7,
COCCSc1nnc(NS(=O)(=O)c2ccccc2)s1,2,.,-1%,5,0.2,

# 3 entries out of the list, sorted by formula weight, ascending.
SMILES,Mtb betalactam,YopH PTP inh,Mtb H37Rv,Arbovirus inh,RecA intein inh,others
CCSc1nc(N)c2c(C)c(C)sc2n1,4,1,-11%,-4,-2.9,
CN(C)S(=O)(=O)N(CC(=O)Nc1ccc(F)c(F)c1)c1ccccc1,-5,-30,0%,-6,16,
Cc1ccc(S(=O)(=O)N2CCN(c3ccnc4cc(Cl)ccc34)CC2)cc1C,8,.,13%,30*,11,

# Other entries follow:
SMILES,Mtb betalactam,YopH PTP inh,Mtb H37Rv,Arbovirus inh,RecA intein inh,others
Nc1ccc2c(c1)Cc1cc([N+](=O)[O-])ccc1-2,89,.,?,-7,-7.5,
Cc1ccc(NC(=O)C2CCN(C(=O)c3ccco3)CC2)cc1C,-3,.,.,.,2.4,
CC1(C)Cc2c(cnn2-c2cccc(F)c2)C(NC(=O)c2ccc[n+]([O-])c2)C1 (centres undefined),-2,.,.,.,-1.1,
COc1cccc(NC(=O)COc2coc(CN3CCc4ccccc4C3)cc2=O)c1,2,.,.,.,-1.8,
Cc1cccc2nc(CSc3ccccc3N)cn12,11,-14,0%,-12,-0.4,
CCOC(=O)C(CC)/C(C)=N\NC(=O)c1ccccc1O (centres undefined),3,-9,4%,-17,-2.7,
COc1ccc(-c2nc(CN(Cc3cnn(C)c3)C(C)C)c(C)o2)c(OC)c1,-4,.,2%,-1,-1.4,
Cc1nc2nc(COc3ccccc3)[nH]n2c(=O)c1Cc1ccccc1,-6,18,3%,3,2.9,
CCOc1cc(/C=N/N=C2/NC(=O)C(CC(=O)O)S2)ccc1OCc1ccc(Cl)cc1 (centres undefined),16,.,5%,5,5.4,
CCSc1nnc(NC(=O)CSc2nnc(CNC(=O)c3ccc(OC)c(OC)c3)o2)s1,-4,-17,-1%,2,-3.2,
O=C(C1CCN(C2CCN(Cc3ccc4cc(F)ccc4n3)CC2)CC1)N1CCCC1,2,.,-14%,0,-0.2,
CCCC(C)C(=O)OCC(=O)Nc1ccc(Br)cc1 (centres undefined),3,.,10%,5,.,
Cc1ccccc1-n1c(C)c(C#N)c(=O)c(-[n+]2ccccc2)c1[S-],-6,.,-6%,4,-3.4,
Cc1nc2ncnn2c(Nc2ccc3c(c2)OCO3)c1Cc1ccccc1,-6,-43,8%,-5,3.4,
Cc1nc2ccccc2c2oc(C(=O)NCCN3CCCCC3C)cc12 (centres undefined),3,-34,2%,15,-3.0,Arbovirus inh repeat=-5
COC(=O)c1cccc(Nc2ncnc3ccc(C)cc23)c1,4,-29,2%,-12,-2.4,
Cc1cc(OC(C)C(=O)NCc2cccnc2)c2c(C)c(Cc3ccccc3)c(=O)oc2c1 (centres undefined),-2,.,.,.,-1.9,
CCOC(=O)c1c(N)c(C#N)cn1-c1ccccc1,?,3,0%,-4,0.9,
Cc1ccc2ccc(S(=O)(=O)NCc3ccccn3)cc2c1,-7,.,.,.,0.6,
COCCn1c(-c2ccc(Br)cc2)nc2oc3cc(OC)ccc3c(=O)c2c1=O,32,.,-7%,.,0.4,
Cn1cc(S(=O)(=O)NC2CCCC2)c(=O)n(C)c1=O,-11,.,.,.,-2.5,
COC(=O)CC1SC(=O)NC1=Nc1cccc(C)c1 (centres undefined),1,7,2%,1,-1.9,
CCOc1ccc(N2CC(C(=O)N3CCN(C(=O)c4ccco4)CC3)CC2=O)cc1 (centres undefined),2,.,.,.,-0.1,
O=C(O)C(Cc1ccc(O)cc1)N1C(=O)c2ccccc2C1=O (centres undefined),-1,.,.,.,-1.9,
CCOc1ccc(NC(=O)c2nc(SCC)ncc2Cl)cc1,-2,.,.,.,-3.3,
CCOc1cc2[nH]c(=S)n(CCCN3CCCC3=O)c(=O)c2cc1OCC,5,-27,-1%,2,-0.1,
COc1ccc(Br)cc1/C=C/C(=O)Nc1c(C)cccc1C,93,-29,7%,1,1.9,
O=C(Nc1cccc2ccccc12)N1CCC2(CC1)OCCO2,1,.,-3%,0,3.0,
O=C(O)CC(c1cccc([N+](=O)[O-])c1)N1Cc2ccccc2C1=O (centres undefined),6,.,-7%,3,.,
CCOc1ccccc1NC(=O)NCCC1=CCCCC1,1,.,0%,3,1.0,
COc1ccc2oc(=O)c(/C(C)=N/Nc3ccccc3)cc2c1,-2,.,0%,-5,-0.5,
CC1CCCCC1NC(=O)CCCCCn1c(=S)[nH]c2ccccc2c1=O (centres undefined),-3,.,-9%,-15,-6.1,
